VDR inhibitor: inhibitors of human vitamin D receptor; VDR-SRC2-3 peptide fluorescence polarization, 2 h; Potency, µM, inactives show max response, negative = inhibition, actives largely listed as inhibitors; P11473; 400,000 compounds, 0.93% hits; AID 504847; active means well fitted inhibition curve with a large enough effect; inconclusive means small, poorly fitted or top-dose-only effect, or another doubt; inactive means no such curve, though single readings can be large or run the other way; further: series mostly up to about 120 µM
Target sequence (P11473 whole entry, looked up): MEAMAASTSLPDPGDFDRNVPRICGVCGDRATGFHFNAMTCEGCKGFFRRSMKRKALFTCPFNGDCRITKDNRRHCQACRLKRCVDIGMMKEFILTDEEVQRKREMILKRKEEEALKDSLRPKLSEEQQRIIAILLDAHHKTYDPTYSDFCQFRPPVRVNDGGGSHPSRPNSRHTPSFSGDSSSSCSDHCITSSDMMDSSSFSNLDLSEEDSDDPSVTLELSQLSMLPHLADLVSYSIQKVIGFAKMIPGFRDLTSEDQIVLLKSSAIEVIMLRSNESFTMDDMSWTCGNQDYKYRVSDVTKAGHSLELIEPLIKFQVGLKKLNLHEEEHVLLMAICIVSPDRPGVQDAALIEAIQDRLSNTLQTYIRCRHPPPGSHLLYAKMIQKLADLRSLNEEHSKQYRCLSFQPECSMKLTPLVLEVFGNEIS
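Fluorescence polarization assay measuring small-molecule disruption of VDR binding to the coregulator peptide SRC2-3. Compounds were pin-transferred (23 nl) into the reagent mix and incubated 2 h at room temperature before reading.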
Numbers without * were called inactive; ? = inconclusive; & = joins results of further samples. On the % scale 0 is the no-effect control and ±100 the full control effect; potency means the concentration at half of the fitted maximal effect. Not all compounds are listed; rates above refer to the full screens.

VDR inhibitor | Molecule
6% | COc1ccc(CN(C)CC(O)COC(c2ccccc2)c2ccccc2)c(OC)c1OC (stereo not given)
-5% | Cc1ccc(N2C(N)=C(C#N)C(c3cccnc3)C3=C2CC(C)(C)CC3=O)cc1 (stereo not given)
-10% | Cn1c(CNC(=O)C(Cc2ccccc2)NC(=O)c2cccc(F)c2)cc(=O)n(C)c1=O (stereo not given)
0% | CCC(CC)NC(=O)CSc1nnc(-c2c[nH]c3ccccc23)o1
11% | CCOc1cc(C2C(C(=O)N3CCOCC3)=C(C)NC3=C2C(=O)CCC3)ccc1O (stereo not given)
-3% | CN(C)C(=O)c1ccc(-c2cncnc2NCc2cccnc2)cc1
-19% | COc1ccc(C2=Nc3ccc(Br)cc3C(c3ccccc3)N2CC(=O)NN)cc1 (stereo not given)
-13% | Cc1c(N2C(=O)/C(=C\c3cccc4ccccc34)SC2=S)c(=O)n(-c2ccccc2)n1C
? | O=C(c1ccco1)N1CCC2(CC1)CCN(c1ccccc1)CC2
-2% | CCC1CCCCN1CCCNC(=O)CNC(=O)Cn1ccc2ccccc2c1=O (stereo not given)
-9% | C=CCC(C)(O)/C=C/c1ccccc1 (stereo not given)
-8% | CS(=O)(=O)NN1C(=O)c2ccccc2NC1c1cc2ccccc2nc1Cl (stereo not given)
16% | O=C(O)CC(NC(=O)Cc1ccc(Cl)cc1)c1ccco1 (stereo not given)
-6% | CCOC(=O)c1ccc(S(=O)(=O)N2CCN(C(=O)c3nn(C)c(=O)c4ccccc34)CC2)cc1
16% | COC(=O)c1ccc(-c2nc3cc(Cl)c(N)cc3s2)cc1
-12% | CCC1CCCCN1C(=O)COC(=O)c1ccc(S(=O)(=O)N2CCOCC2)cc1 (stereo not given)
-6% | Cc1ccc(S(=O)(=O)Nc2ccc(S(=O)(=O)N3CCCC3)cc2)cc1
-3% | COc1ccccc1NC(=O)c1cnn(-c2ccccc2)c1-n1cccc1
4% | COc1ccc2c(Sc3ccc(C)cc3)c(C(=O)NCc3ccc(F)cc3)[nH]c2c1
-13% | COc1ccccc1N1CCN(C(c2cccs2)C(C)NC(=O)c2ccncc2)CC1 (stereo not given)
-14% | Cc1ccc(-c2cc(C(=O)OC3CCOC3=O)c3ccccc3n2)c(C)c1 (stereo not given)
-3% | O=C1CC(c2ccccc2F)c2c(c3ccccc3[nH]c2=O)O1 (stereo not given)
8% | Cc1ccc(OCCSc2nnc(-c3cccs3)n2C)cc1
-6% | COc1cccc(N2CC(NC(=O)C(=O)c3c(C)[nH]c4ccccc34)CC2=O)c1 (stereo not given)
-26% | Cc1ccc(C(C)NC(=O)C23CC4CC(CC(C4)C2)C3)cc1 (stereo not given)
27% | COc1ccc(NC(=O)Cn2c(SCc3ccc(F)cc3)nc3cccnc32)cc1OC
16% | O=C(CCC(=O)N1CC2CCCN2c2ccccc21)NCc1ccc(F)cc1 (stereo not given)
7% | COc1ccc(CCn2c(Br)nc3c2c(=O)[nH]c(=O)n3C)cc1
-7% | COCCCNC(=O)C1CCN(c2nnc(-n3cccc3CNc3ccc(C)cc3)s2)CC1
6% | COc1ccccc1-n1nnnc1SCC(=O)Nc1ccccc1
-1%&-16% | Cc1ccc(CNC(=O)c2nnc(Cc3ccc(Cl)cc3)o2)cc1
-2% | Cc1ccc(-c2noc(CSc3nnnn3-c3ccccc3)n2)cc1
0% | O=C(c1cccs1)N1CCN(Cc2ccc3c(c2)OCO3)CC1
3% | CC1CCCCC1NC(=O)CCCc1nc2ccccc2c(=O)[nH]1 (stereo not given)
6% | O=C(OCc1cccc([N+](=O)[O-])c1)c1ccc[nH]c1=O
-7% | CC(Oc1ccc(Cl)cc1)C(=O)OCC(=O)Nc1ncc(Cl)cc1Cl (stereo not given)
5% | CC(=O)C1=C(O)C(=O)N(Cc2cccnc2)C1c1ccc(Cl)cc1 (stereo not given)
4% | CC(NC(=S)Nc1ccc([N+](=O)[O-])cc1)c1ccncc1 (stereo not given)
-2% | CCCN1Cc2cccc(C(=O)Nc3cc(OC)cc(OC)c3)c2C1=O
9% | CCOC(=O)Nc1ccc2c(c1)N(C(=O)CCN1CCN(CCO)CC1)c1ccccc1CC2
89µM* | COC(=O)c1c(-c2cccnc2)csc1NC(=O)c1ccc2c(c1)OCO2
-10% | CC(C)(C)CC(C)(C)NC(=O)CSCC(=O)Nc1ccc2ccccc2c1
-12% | NC(=O)C1(N2CCCCC2)CCN(C(=O)c2ccc(-n3cnnn3)cc2)CC1
-18% | CC(=O)N/C(=C\c1ccccc1)C(=O)OCC(=O)NC1CCS(=O)(=O)C1 (stereo not given)
-13% | O=C(NCc1cccs1)c1nc2c(nnn2Cc2ccc(F)cc2)c(=O)[nH]1
8% | CSc1cccc(NC(=O)CN2C(=O)COc3ccc(S(=O)(=O)N4CCC(C)CC4)cc32)c1
1% | N=c1c2c(-c3ccccc3)c(-c3ccccc3)n(Cc3ccco3)c2ncn1Cc1ccccc1
6% | CCOc1ccc(CNCc2c(C(=O)O)n(Cc3ccc(C)cc3)c3cc(C)ccc23)cc1
-12% | COc1cc(Cl)c(C)cc1NC(=O)CSc1nnc(-c2ccccn2)n1Cc1ccco1
-3% | CN(CC(=O)Nc1ccccc1Cl)C(=O)COC(=O)/C=C/c1cccs1
8% | COC(=O)c1cc(C(=O)OCC(=O)Nc2ccccc2OC(F)F)cc([N+](=O)[O-])c1
? | COc1cc(C(C)C)c2c(c1)S(=O)(=O)N(COc1cc(=O)n3cccc(OCCN4CCCCC4)c3n1)C2=O
-7% | COc1ccc2nc(NC(=O)c3ccc(NC(=O)C4CCCO4)cc3)sc2c1 (stereo not given)
-18% | CCc1nnc(NC(=O)CSc2nc3[nH]c(=O)cc(O)c3s2)s1
1% | CCn1c(CNC(=O)c2cccc(C)c2)nc2ccccc21
11% | CCc1cccc(C)c1NC(=O)CCNC(=O)c1cccc(C)c1
-13% | COc1ccc(Br)cc1C1Nc2cccc3cccc(c23)N1
89µM* | CCC(NC(=O)CCc1ccccc1)c1ccccc1 (stereo not given)
4% | Cn1ncc(N=Cc2ccccc2O)c1C(=O)Nc1ccccc1
12% | O=C(Nc1nc(-c2cccs2)cs1)c1ccc(S(=O)(=O)N2CCCC2)cc1

Not a retest: 15 of the compounds above.
VDR inhibitor | Molecule
89µM* | COC(=O)c1c(-c2cccnc2)csc1NC(=O)c1ccc2c(c1)OCO2
-10% | CC(C)(C)CC(C)(C)NC(=O)CSCC(=O)Nc1ccc2ccccc2c1
-12% | NC(=O)C1(N2CCCCC2)CCN(C(=O)c2ccc(-n3cnnn3)cc2)CC1
-18% | CC(=O)N/C(=C\c1ccccc1)C(=O)OCC(=O)NC1CCS(=O)(=O)C1 (stereo not given)
-13% | O=C(NCc1cccs1)c1nc2c(nnn2Cc2ccc(F)cc2)c(=O)[nH]1
8% | CSc1cccc(NC(=O)CN2C(=O)COc3ccc(S(=O)(=O)N4CCC(C)CC4)cc32)c1
1% | N=c1c2c(-c3ccccc3)c(-c3ccccc3)n(Cc3ccco3)c2ncn1Cc1ccccc1
6% | CCOc1ccc(CNCc2c(C(=O)O)n(Cc3ccc(C)cc3)c3cc(C)ccc23)cc1
-12% | COc1cc(Cl)c(C)cc1NC(=O)CSc1nnc(-c2ccccn2)n1Cc1ccco1
-3% | CN(CC(=O)Nc1ccccc1Cl)C(=O)COC(=O)/C=C/c1cccs1
8% | COC(=O)c1cc(C(=O)OCC(=O)Nc2ccccc2OC(F)F)cc([N+](=O)[O-])c1
? | COc1cc(C(C)C)c2c(c1)S(=O)(=O)N(COc1cc(=O)n3cccc(OCCN4CCCCC4)c3n1)C2=O
-7% | COc1ccc2nc(NC(=O)c3ccc(NC(=O)C4CCCO4)cc3)sc2c1 (stereo not given)
-18% | CCc1nnc(NC(=O)CSc2nc3[nH]c(=O)cc(O)c3s2)s1
1% | CCn1c(CNC(=O)c2cccc(C)c2)nc2ccccc21

Reformatted as labelled records: entries from further up.
Cn1ncc(N=Cc2ccccc2O)c1C(=O)Nc1ccccc1
  VDR inhibitor: 4%

O=C(Nc1nc(-c2cccs2)cs1)c1ccc(S(=O)(=O)N2CCCC2)cc1
  VDR inhibitor: 12%

Later entries
VDR inhibitor | Molecule
-1% | O=C1N/C(=C/c2cccs2)C(=O)N1Cc1ccc(Br)cc1
-4% | COc1ccc(Nc2cc(C(=O)NCCc3ccc(C)cc3)c3ccccc3n2)c(OC)c1
-16% | Cc1nc2ccccc2c(=O)n1/N=C/c1ccc2ccccc2c1O
-15% | Cc1cc(C)c(S(=O)(=O)N2CCCCC2CCNC(=O)C(=O)NCCN2CCOCC2)c(C)c1 (stereo not given)
-20% | C=CCSc1nc2c(sc3nc(C)cc(C)c32)c(=O)[nH]1
4% | Cc1cc(NC(=O)c2ccc(C(C)(C)C)cc2)no1
-10% | COC(=O)c1ccc(C(=O)OC)c(NC(=O)COC(=O)c2ccccc2OC)c1
10% | Cc1ccc(C2c3c(-c4ccccc4O)n[nH]c3C(=O)N2CCc2ccccc2)cc1 (stereo not given)
9% | COc1ccccc1N(CC(=O)Nc1cccc(C(F)(F)F)c1)S(C)(=O)=O
-13% | COc1ccc(CN(C(=O)CNC(=O)c2ccco2)C(C(=O)NC2CCCC2)c2ccco2)cc1 (stereo not given)
8% | O=C(CSCc1cnn(-c2ccccc2)c1-n1cccc1)N1CCN(Cc2ccccc2)CC1
22µM* | Cc1cc(C)c(S(=O)(=O)Nc2cc(SCC(=O)O)c(O)c3ccccc23)cc1C
? | Cc1cc([N+](=O)[O-])ccc1P(=O)(O)c1ccc([N+](=O)[O-])cc1C
17% | Cn1cnc(C(=O)NCc2ccc(CNC(=O)OC(C)(C)C)cc2)c1C(=O)NCc1ccc(CNC(=O)OC(C)(C)C)cc1
5% | O=C(c1ccc2c(c1)OCO2)C1CCCN(Cc2ccccc2OC(F)F)C1 (stereo not given)
-11% | Cc1cccc([C@@H]2[C@@H]3C(=O)N(C)C(=O)[C@@H]3[C@@H]3C(=O)Nc4ccccc4C(=O)N23)c1
5% | Cc1ccc2c(=O)c(C(=O)c3ccc(F)cc3)cn(CC(=O)Nc3ccc4c(c3)OCCO4)c2n1
13% | Cc1ccc(NC2=Nc3ccccc3CC2)cc1
-7% | O=C(Cc1ccc(Cl)cc1)N1CCC2(CC1)NCCc1[nH]cnc12
0% | Cc1ccc(-c2cc(C(=O)Nc3ccc(S(=O)(=O)Nc4onc(C)c4C)cc3)[nH]n2)c(O)c1
9% | C#CCOc1ccc(C2C3=C(COC3=O)Nc3cc4c(cc32)OCO4)cc1OC (stereo not given)
-2% | CCCn1c(Oc2ccccc2)nc2c1c(=O)n(C)c(=O)n2C
3% | COc1ccc(CC(CN)c2ccccc2)cc1 (stereo not given)
-8% | Cc1cccc2c(N=Nc3ccccc3)c(O)[nH]c12
1% | NCCCC[C@@H]1NC(=O)c2cc([N+](=O)[O-])cc(I)c2SC[C@@H](C(N)=O)NC(=O)[C@H](CCC(N)=O)NC1=O
3% | COC(=O)C1=NNC2(C)C(=O)N(c3ccc(C)cc3)C(=O)C12 (stereo not given)
5% | COCCN(CCOC)c1nc(S(=O)(=O)c2ccc(C)cc2)c(Cl)s1
-15% | COC(=O)C1=C(C)Nc2c(c(=O)n(C)c(=O)n2C)C1c1ccc(C)cc1 (stereo not given)
14% | COc1ccc(Cc2c[nH]c(=O)[nH]c2=O)cc1
8% | CN(Cc1ccccc1)S(=O)(=O)c1ccc2[nH]c3c(c2c1)CCCCC3
12% | CCCCN(CC)Cc1ccc(CNC(=S)Nc2ccccc2F)o1
-7% | COc1ccccc1N1C(=O)CC(c2ccccc2)CC1=O
-22% | COCCOC(=O)C(C#N)c1nc2ccccc2nc1N1CCN(Cc2ccccc2)CC1 (stereo not given)
-5% | O=C1CSC2(C(=O)N(Cc3cccc(F)c3)c3ccccc32)N1c1cccc(C(F)(F)F)c1 (stereo not given)
-20% | Cc1cc(/C=N/NC(N)=S)c(C)n1-c1ccc(Cl)c(Cl)c1
-1% | CCC(C)NC(=O)CSc1nnc(-c2ccc(OC)c(OC)c2)c(-c2ccc(OC)c(OC)c2)n1 (stereo not given)
0% | Cc1noc(C)c1C(=O)N1CCCC(C(=O)c2cccc(C(F)(F)F)c2)C1 (stereo not given)
1% | COc1ccc(NC(=O)CSc2nc3ccccc3cc2Cc2ccccc2)cc1
5% | COC(=O)C1CC(=O)c2sccc2C1 (stereo not given)
1% | Cc1ccc(S(=O)(=O)N2CCN(C)CC2)cc1[N+](=O)[O-]
6% | CCn1ccnc1CN(C)Cc1cn(-c2ccccc2)nc1-c1ccc(OC)cc1F
-19% | CCC(=O)N1CCc2cc(S(=O)(=O)CCC(=O)N3CCN(c4cc(C)ccc4C)CC3)ccc21
3% | COc1cc(C2Nc3c(F)cccc3C3C=CCC32)cc(Br)c1OC (stereo not given)
8% | CC(OC(=O)C1CC(=O)N(Cc2ccco2)C1)C(=O)Nc1ccc(F)cc1Cl (stereo not given)
-10% | COc1cccc(OC)c1C(=O)Nc1ccc2nc(C)c(C)nc2c1
-7% | COc1ccc(NC(=O)CSc2nc3nc(-c4cccs4)cc(C(F)(F)F)c3c(=O)[nH]2)c(OC)c1
1% | O=C(Nc1cccnc1)c1cc2c(ccc3ccccc32)o1
-3% | CC(C)c1nc2oc3c(NCC4CCCO4)ncnc3c2c2c1CCC2 (stereo not given)
-11% | NNC(=O)Cc1cn(-c2ncc(C(F)(F)F)cc2Cl)c2ccccc12
-2% | O=[N+]([O-])c1cccc(N/N=C/c2ccc(N3CCOCC3)cc2)c1
5% | O=C(CCNC(=O)c1ccc(Cl)cc1)Nc1ccc(Cl)cc1F
-8% | CCc1nnc(NC(=O)CSc2nnc(CNc3cccc(C)c3)n2-c2ccccc2)s1
-12% | COc1ccc(CCNC(=O)c2nc(-c3cccs3)no2)cc1OC
2% | CC1CC(C)CN(CC(=O)Nc2ccc3c(c2)OCCO3)C1 (stereo not given)
4% | COc1ccc2c(c1)cc1n2CCN2CCCN=C12
3% | COc1ccc(-c2noc(COc3ccc4c(c3)OCO4)n2)cc1
7% | CC(=O)c1ccc(NC(=O)CSc2cn(CC(=O)N3CCCCCC3)c3ccccc23)cc1

High-throughput results as filed in PubChem.
